E coli growth: E. coli growth inhibition, primary screen, OD600. OD600 absorbance (concentration not given with the values). hit rate 0.21% among 330,000. AID 1053175, 2014. Escherichia coli growth, 23 h; active compounds read low;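 active = OD600 absorbance below the run mean of sample wells minus 3.6 SD, in any replicate, cut at about 0.56 in these data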;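 also: stock transfer was 300 nL into about 60 µL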
ALR H2O2 inh: inhibitors of human ALR sulfhydryl oxidase, primary screen, biochemical, H2O2 detection, HRP-luminol luminescence, single point | FAD-linked sulfhydryl oxidase ALR (Homo sapiens), P55789 | purified ALR, DTT oxidation | inhibition, % (concentration not given with the values) | hit rate 3.8% among 290,000;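 active = mean and each replicate at 75% or more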;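 also: stock transfer was 7.5 nL into about 7.5 µL; 0% = neutral wells and 100% = wells with inactivated enzyme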
Target sequence (P55789 whole entry, looked up): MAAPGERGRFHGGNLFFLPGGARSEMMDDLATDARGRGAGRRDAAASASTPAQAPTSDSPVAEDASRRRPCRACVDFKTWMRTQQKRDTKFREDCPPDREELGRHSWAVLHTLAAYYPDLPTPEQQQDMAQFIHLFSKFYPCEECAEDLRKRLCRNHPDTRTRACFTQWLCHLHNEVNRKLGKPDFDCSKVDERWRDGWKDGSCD
FGF22 binding: binders of human FGF22 protein, primary screen, FGF22 synaptogenesis inhibitor project, biophysical, thermal shift, single point; Fibroblast growth factor 22 (Homo sapiens), Q9HCT0; calls only at 9.99 µM; recombinant FGF22 thermal shift, SYPRO orange fluorescence; percent of sucrose octasulfate shift, DMSO zero; hit rate 1.5% among 340,000;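 active = melting point raised past a set limit in the mean and every replicate; three in four hits are not shown here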
Target sequence (Q9HCT0 whole entry, looked up): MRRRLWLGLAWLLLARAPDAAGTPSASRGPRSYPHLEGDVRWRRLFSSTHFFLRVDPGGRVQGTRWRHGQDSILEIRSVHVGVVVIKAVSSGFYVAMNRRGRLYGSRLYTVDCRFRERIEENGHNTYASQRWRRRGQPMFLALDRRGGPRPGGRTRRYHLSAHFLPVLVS
MLL AF4-AF9 inh: inhibitors of AF4 peptide binding to AF9, primary screen, biochemical, AlphaScreen, biotin-AF4 peptide, FLAG-AF9, single point | Protein AF-9 (Homo sapiens), P42568 | inhibition, % at 10 µM | AID 651704, 2012 | hit rate 0.47% among 350,000;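 active = every replicate reaching a set inhibition limit, whatever the replicate mean, cut at about 25% in these data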;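 also: 0% = plate neutral control median and 100% = total signal loss; the record names both 10 and 1 µM as test concentration; the first replicate is given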
rRNA inh HTS: reduced GFP signal of wild-type E. coli, primary screen, bacterial rRNA inhibitor project, GFP/RFP fluorescence, OD600, single point. E. coli WT GFP vs humanized-ribosome RFP mutants, 24 h; active compounds read low; DMSO median 0, no signal -100. GFP signal change (wild-type ribosome), % (concentration not given with the values). hit rate 1.6% among 350,000;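 active = significant combined selectivity score with lowered wild-type GFP, culture density cut under 30%, mutant RFP and density less affected; inactive = any of these conditions unmet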; also: one replicate is shown; some compounds called inactive have numbers as strong as hits
HNF4A DNA FP: change in binding of human HNF4A to DNA, primary screen, biochemical, fluorescence polarization, FITC-DNA; hit rate 0.3% among 360,000; AID 1224865, 2016; activity change, % at 10 µM; 1 h; Hepatocyte nuclear factor 4-alpha (Homo sapiens), P41235; in the data active = activity change above about 30%, passing the limit was not always enough;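 also: controls were the assay level and a saturating level of protein; the project sought stronger binding though the title names inhibitors; some compounds called inactive have numbers as strong as hits; positive values seem to mean higher polarization but the record does not say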
Target sequence (P41235 whole entry, looked up): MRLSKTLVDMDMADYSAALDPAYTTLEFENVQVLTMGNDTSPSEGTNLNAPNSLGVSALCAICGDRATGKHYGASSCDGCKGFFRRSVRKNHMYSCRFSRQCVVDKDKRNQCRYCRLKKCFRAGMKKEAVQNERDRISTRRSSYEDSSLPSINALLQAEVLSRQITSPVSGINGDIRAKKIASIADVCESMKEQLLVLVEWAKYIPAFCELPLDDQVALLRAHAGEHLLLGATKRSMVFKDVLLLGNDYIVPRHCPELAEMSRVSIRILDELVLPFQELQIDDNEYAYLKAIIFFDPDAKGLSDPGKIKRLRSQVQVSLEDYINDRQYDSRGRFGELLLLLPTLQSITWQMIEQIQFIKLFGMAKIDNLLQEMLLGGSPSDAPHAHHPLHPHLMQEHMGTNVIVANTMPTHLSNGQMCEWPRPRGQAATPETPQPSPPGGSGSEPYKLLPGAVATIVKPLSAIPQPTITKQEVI
Vif A3G: inhibitors of Vif binding to APOBEC3G peptide, primary screen, biochemical, TR-FRET, GST-Vif 1-94, biotin-A3G peptide, dose response retest (AID 1117319); Virion infectivity factor (Human immunodeficiency virus type 1 group M subtype B (isolate …; TR-FRET GST-Vif / biotin-A3G peptide binding; higher % means a stronger effect; test concentration not given here; strong numbers were not always called active; inhibition, %, or IC50 in µM where a hit was titrated; hit rate 0.57% among 260,000;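 active = above the screen mean plus three standard deviations and confirmed in dose response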;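 also: Vif residues 1-94 fused to GST binding biotinylated APOBEC3G peptide 110-148; 0% = full assay without inhibitor and 100% = GST in place of GST-Vif; retest series ran down from 100 µM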
rRNA inh HTS OD600: also measured in rRNA inh HTS; calls as there; OD600 change, %; measured here: OD600 growth;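 optical density of the mix in the first replicate; 0 = DMSO median and -100 = no signal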
rRNA inh HTS RFP: further read-out of rRNA inh HTS, marked with its call; RFP signal change, %; measured here: RFP humanized mutant strains;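 first replicate; 0 = DMSO median and -100 = no signal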
Active calls of the source: *; i = inactive; x = no result given; & = joins results of further samples. A portion of the library. The share of hits here may be higher or lower than overall.

SMILES	rRNA inh HTS OD600	rRNA inh HTS RFP	rRNA inh HTS	HNF4A DNA FP	MLL AF4-AF9 inh	FGF22 binding	E coli growth	ALR H2O2 inh	Vif A3G
COC(=O)C[C@H]1CC[C@H]2[C@@H](COc3ccc(NC(=O)c4ccc(C#N)cc4)cc3C(=O)N2C)O1	2	-1.0	-1	x	-2.0	i	x	x	x
Cc1ccc(N(C(=O)C2CCCC2)C2C=CS(=O)(=O)C2)cc1 (centres undefined)	x	x	x	3.0	x	x	0.73	3	-5%
C[C@H](CO)N1C[C@H](C)[C@H](CN(C)C(=O)C2CCC2)Oc2ncc(C#CC3(O)CCCC3)cc2C1=O	1	-5.0	5	x	-3.5	i	x	x	x
CCOc1ccc(-n2nnnc2-c2nc3ccccc3s2)cc1	x	x	x	-0.6	x	x	0.73	x	-31%
Cc1ccc(S(=O)(=O)NCCCN2CCCC2)cc1	14	3.7	21	3.0	0.3	i	0.68	-1	4%
COc1cc(NC(=O)c2nccnc2N)cc(C(=O)Nc2cccc(C(F)(F)F)c2)c1	-21&1	-3.5&1.9	-2&-9	-2.9&3.9	-1.0&-5.7	i	0.68	-14	3%
C[C@@H]1CN([C@H](C)CO)C(=O)c2cccc(NS(=O)(=O)c3ccc(F)cc3)c2O[C@@H]1CN(C)S(=O)(=O)c1ccccc1	8	0.8	0	x	0.1	i	x	x	x
CCOC(=O)Cc1cnc(NC(=O)c2ccccc2)s1	6	0.4	8	1.9	-2.1	i	0.67	-3	7%
CCC(C)(C)NC(=O)Cc1ccc(Cl)cc1	3	0.0	-4	0.6	-1.8	i	0.69	-3	-11%
O=C(NC1CCCCC1)C(c1ccc(F)cc1)N(C(=O)Cc1ccsc1)c1ccc(F)cc1 (centres undefined)	5	1.8	2	-1.8	x	x	0.69	-1	101%
O=C1c2ccccc2C(=O)N1c1cccc(-c2nc3ccccc3o2)c1	x	x	x	-0.3	x	x	0.85	-8	-8%
Cc1ccnc(NCc2ccc(Cl)cc2)c1	2	-1.3	4	-1.3	-0.5	x	0.66	0	x
CC(=O)Oc1ccc([C@@H]2COc3c(ccc4c3C=CC(C)(C)O4)C2)c(OC(C)=O)c1	2	1.2	2	-2.6	-0.6	i	0.75	0	x
CCOc1ccc(NC(=O)COc2cccc3cccnc23)cc1S(=O)(=O)N1CCCC1	-22	6.0	-21	-7.3	2.9	i	x	x	4%
CCOC(=O)C1CCN(CCC(=O)Nc2cc(C)ccc2C)CC1	5	-1.8	8	0.4	0.6	i	x	-8	-7%
Cc1nc2ccc(NC(=O)c3ccc(Cl)c(NC(=O)c4cccs4)c3)cc2s1	x	x	x	-1.6	x	x	0.67	-19	10%
COc1ccc(C(=O)Nc2cccc(-c3ccc4nncn4n3)c2)cc1OC	14	8.2	12	1.0	7.0	i	0.7	3	-10%
CCN(Cc1ccccc1)C(=O)C(C)OC(=O)c1cc(S(=O)(=O)Nc2c(C)n(C)n(-c3ccccc3)c2=O)ccc1C (centres undefined)	-14	-0.6	-15	-3.3	-0.4	i	0.7	-1	1%
CCCc1cc(=O)oc2cc(OCC(=O)NCCN3CCOCC3)c(Cl)cc12	-9	0.4	-5	0.7	-1.9	i	x	x	-2%
O=C(NCc1ccc2c(c1)OCO2)c1c[nH]c2ccc(S(=O)(=O)N3CCOCC3)cc2c1=O	x	x	x	-2.0	x	x	0.72	-31	-4%&2%
COC(=O)c1ccc(CNC(=O)COC(=O)COc2ccc(OC)cc2)cc1	4	2.1	7	1.4	-1.3	i	0.72	-7	-5%
O=C(NCCOc1cccc(Cl)c1Cl)c1cc(-n2cnnc2)ccc1Cl	-5	23	-27	2.2	3.2	i	0.73	-5	2%
Cc1cc(C)cc(-n2ncc3c2CCCC3NC(=O)c2cc(C)oc2C)c1 (centres undefined)	-3	1.0	0	-0.7	-3.6	i	0.69	3	x
O=C(NCCNC(=O)c1ccccn1)c1ccc(-c2ccccc2)cc1	-23	-7.5	-4	6.5	-2.0	i	0.64	-2	x

Individual results from above:
rRNA inh HTS result of CCCc1cc(=O)oc2cc(OCC(=O)NCCN3CCOCC3)c(Cl)cc12 = -5
E coli growth result of O=C(NCc1ccc2c(c1)OCO2)c1c[nH]c2ccc(S(=O)(=O)N3CCOCC3)cc2c1=O = 0.72

The results go on.
SMILES	rRNA inh HTS OD600	rRNA inh HTS RFP	rRNA inh HTS	HNF4A DNA FP	MLL AF4-AF9 inh	FGF22 binding	E coli growth	ALR H2O2 inh	Vif A3G
COC(=O)C1[C@H]2SC(C)(C)C(C(=O)OC)N2C(=O)N1Cc1nc2ccccc2s1 (some centres undefined)	1	0.0	2	-4.4	-0.7	i	x	15	x
O=C(NCC1CC1)[C@@H]1[C@@H](CO)[C@@H]2Cn3c(cccc3=O)[C@@H]2N1C(=O)CC1CC1	17	-1.9	6	x	-18	i	x	x	x
Cc1ccc(NC(=O)c2c(C)nc3ccccn23)cc1C	0	11	-11	1.5	-1.5	i	0.67	27	0%
CCC(C)N(C(=O)COC(=O)/C=C/c1ccc(O)c(OC)c1)C1CCS(=O)(=O)C1 (centres undefined)	x	x	x	0.2	x	x	0.66	94*	-4%
Cc1noc(C)c1S(=O)(=O)N(C)C[C@@H]1Oc2ccc(NS(=O)(=O)c3ccc(Cl)cc3)cc2C(=O)N([C@@H](C)CO)C[C@@H]1C	-6	1.3	0	x	0.9	i	x	x	x
CC1C(=O)N(Cc2cn(CCC3OCCO3)nn2)CCS(=O)(=O)N1Cc1ccc(-c2ccc(Cl)c(Cl)c2)cc1 (centres undefined)	-9	-0.9	-8	5.2	0.7	i	x	x	x
COc1ccccc1S(=O)(=O)Nc1ccc(S(=O)(=O)Nc2nccs2)cc1	5	0.2	15	-0.7	-2.7	i	0.69	0	6%
CN1CCN(CCNC(=O)Cn2c(=O)c3cccn3c3ccc(F)cc32)CC1	-12	0.1	-5	-2.2	-1.0	i	0.64	-5	-1%
COc1ccc(CNC(=O)C2CC(c3ccccc3[N+](=O)[O-])=NO2)cc1 (centres undefined)	9	1.2	-1	0.1	3.5	i	0.7	-8	-4%
CN(C)C(=O)c1cc2c(c(-c3cccc(C4=CCCCC4)c3)n1)[C@@H](CCO)N(S(C)(=O)=O)C2	-14	5.1	-5	x	2.4	i	x	x	x
Cc1cc(C)c2cc(C#N)c(NCCNC(=O)c3ccccc3)nc2c1	-8	1.3	-4	2.6	0.7	i	x	x	x
O=C(CC1CCC1)NC(c1ccccc1)c1ccccc1	5	2.6	-1	6.4	0.1	i	0.73	x	-2%

Some of the entries so far, with values under each structure:
Results follow in this order: rRNA inh HTS OD600	rRNA inh HTS RFP	rRNA inh HTS	HNF4A DNA FP	MLL AF4-AF9 inh	FGF22 binding	E coli growth	ALR H2O2 inh	Vif A3G
O=C(NCC1CC1)[C@@H]1[C@@H](CO)[C@@H]2Cn3c(cccc3=O)[C@@H]2N1C(=O)CC1CC1
    17	-1.9	6	x	-18	i	x	x	x
O=C(CC1CCC1)NC(c1ccccc1)c1ccccc1
    5	2.6	-1	6.4	0.1	i	0.73	x	-2%

The list continues:
SMILES	rRNA inh HTS OD600	rRNA inh HTS RFP	rRNA inh HTS	HNF4A DNA FP	MLL AF4-AF9 inh	FGF22 binding	E coli growth	ALR H2O2 inh	Vif A3G
CCc1ccc(N(CC(=O)N2CCCCCC2)S(C)(=O)=O)cc1	7	0.9	10	-7.5	2.1	i	0.68	-6	x
CSCC[C@H](NC(=O)OC(C)(C)C)C(=O)N1CCC(C(=O)N[C@@H](C)C(=O)O)CC1	7	-11	17	-0.5	-3.9&9.1	i	0.67	x	-4%
CCOc1ccc(NC(=S)NC(=O)c2ccco2)cc1	-10	-5.1	4	1.9	1.1	i	0.61	-5	8%
CCOC(=O)C(NC(=O)CC)C(O)c1cccc([N+](=O)[O-])c1 (centres undefined)	0	-0.8	6	-3.5	-55	i	0.68	-2	2%
C[C@@H]1CN([C@H](C)CO)C(=O)Cc2cc(NC(=O)Nc3ccccc3)ccc2O[C@@H]1CN(C)C(=O)Nc1ccccc1	-6	-1.7	2	x	-13	i	x	x	x
C[C@@H]1CN([C@@H](C)CO)S(=O)(=O)c2ccc(-c3cncnc3)cc2O[C@H]1CN(C)Cc1ccccn1	-4	0.3	-3	x	-3.9	i	x	x	x
Cc1c(CC(=O)N2CCN(C(=O)C3COc4ccccc4O3)CC2)c(=O)oc2cc(O)cc(O)c12 (centres undefined)	-1	15	1	3.3	3.7	i	0.7	-49	x
CC(C)(C)C(=O)Cn1c(=N)n(Cc2ccccc2)c2ccccc21	x	x	x	-1.2	x	x	x	2	17%
COc1ccc(-c2noc(CSc3nc4sc(C)c(C)c4c(=O)n3-c3ccccc3)n2)cc1OC	8	-1.3	22	1.3	-0.5	i	0.71	24	-2%
Cc1ccccc1NC(=S)N(Cc1ccco1)C(C)c1ccccn1 (centres undefined)	3	-5.0	8	0.6	1.8	i	0.67	-2	-8%
COc1ccc(OC)c(/C=C2\N=C(c3ccccc3)OC2=O)c1	7	-3.8	18	-2.0	0.2	i	0.72	-12	x
CC(C)NC(=O)N(C)C[C@H]1Oc2ncc(C#CCc3ccccc3)cc2C(=O)N([C@H](C)CO)C[C@@H]1C	-4	-0.6	1	x	-2.4	i	x	x	x
COc1cccc(CN2CCC3(CC2)CN(C(=O)Nc2ccc(F)cc2)[C@H](CO)c2c3c3ccc(OC)cc3n2C)c1	-26	35	-22	x	36*	i	x	x	x
N#C[C@@H]1[C@H](c2ccc(C3=CCCC3)cc2)[C@@H](CO)N1C(=O)c1cccc(F)c1	-8	-1.4	-2	x	-1.7	i	x	x	x
NS(=O)(=O)c1ccc(Oc2ccc(S(N)(=O)=O)cc2)cc1	7	1.7	12	-0.5	0.6	i	0.68	-1	x
COc1ccccc1Cc1c(-c2cccc(Br)c2)nc2ccc(C)cn12	-5	9.4	-3	x	-0.4	i	x	x	x
O=C(NCCCN1CCCC1)c1ccc2c(c1)N(Cc1ccccc1F)C(=O)c1ccccc1S2(=O)=O	2	0.8	6	5.9	6.8	i	0.69	-7	x
CCOC(=O)[C@]12CCCC=C1N(Cc1ccc(Cl)cc1Cl)C(=O)[C@H](CC(=O)NCCCN1CCCC1=O)C2	x	x	x	-0.6	0.4	i	x	x	x
C[C@@H]1CCCCO[C@@H](CN(C)Cc2ccc(Cl)c(Cl)c2)[C@@H](C)CN([C@H](C)CO)C(=O)c2cc(NS(=O)(=O)c3cn(C)cn3)ccc2O1	-3	7.9	0	x	0.9	i	x	x	x
CCCSc1nc2c([nH]1)c(=O)n(C)c(=S)n2C	0	2.7	-8	-0.6	3.5	i	x	x	x
C[C@@H]1CN([C@H](C)CO)C(=O)c2ccccc2-c2ccccc2CO[C@@H]1CN(C)C	6	-5.6	2	x	-3.0	i	x	x	x
COCCCNCCCCSc1ccc(Cl)cc1	x	x	x	0.7	x	x	0.61	x	2%
O=C(NCCc1ccccc1)C1CC(=O)N(C2CCCCCC2)C1 (centres undefined)	3	1.4	-1	-0.3	-1.3	i	0.65	-1	21%
CSCCC(NC(=O)c1ccccc1Cl)C(=O)N(C)Cc1cccs1 (centres undefined)	1	1.8	6	-1.9	0.7	i	0.74	-4	x
Cc1ccc(Nc2ccc(NCc3ccccc3)nn2)cc1C	x	x	x	3.1	x	x	0.55	27	31%
C[C@@H]1CN([C@H](C)CO)S(=O)(=O)c2ccc(/C=C/c3ccccc3)cc2O[C@@H]1CN(C)C	4	1.0	2	x	10	i	x	x	x

Screening data deposited in PubChem BioAssay by several laboratories.
